Screens (PubChem)
Menin MLL FP FL = displaces fluorescein MLL peptide from human menin | Fluorescence polarization, fluorescein-MLL peptide displacement from menin | FP activity change, % at 61.4 µM | 290,000 tested, under 10 active | AID 1766; inconclusive = falling polarisation curve, or a change in total fluorescence; inactive = total fluorescence flat and polarisation flat or rising; no compound was filed as active; the % refers to the polarisation; negative = inhibition;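 further: % of control where 0% means no effect; inhibitors lower the polarisation; unlabelled MLL peptide was the positive control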
Sfp PPTase inh = blocks B. subtilis Sfp PPTase activity; Q9F4F7; Biochemical Sfp PPTase activity, qHTS; Potency, µM, without a hit: max response, negative = inhibition, actives largely listed as inhibitors; 310,000 tested, 3.5% active; AID 1490; active means well fitted inhibition curve with a large enough effect; inconclusive means small, poorly fitted or top-dose-only effect, or another doubt; inactive means no such curve, though single readings can be large or run the other way;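 further: the enzyme is Sfp with the accession as filed and its product quenches rhodamine fluorescence; potency means the concentration at half of the fitted maximal effect; 0% = enzyme reaction without inhibitor and -100% = no enzyme wells; top concentration of the series not given in the record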
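Fluorescence-quenching assay: 15 nM Sfp-PPTase preincubated 15 min at room temperature with compound, then 5 uM rhodamine-CoA and 12.5 uM BHQ-2-labelled YbbR peptide added. Fluorescence (ex 525/em 598 nm) read at start and after 30 min; difference gives rate.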
The depositor's hits bear a star; u = inconclusive; & = joins results of further samples; [ ] = another dose, or the depositor's remark. These rows are one share of the data; the hit share may differ from the screen's.

SMILES	Menin MLL FP FL	Sfp PPTase inh
CCCC[C@@H]1C[C@H]1C(NC(=O)c1ccccc1)c1ccccc1 (stereo not given in full)	1.9	28%
CC(=O)Nc1ccc(OC[C@@H](O)CNC(C)C)cc1	u	10%&11%
CCC(CC)C(=O)Nc1ccncc1	-0.6	15%
C=C1C(=O)C=C2CN(C(=O)c3ccccc3)[C@@](Cc3ccc(OC)cc3)(C(=O)OC)[C@@H]12	24	4µM*
CCCCSc1nnc2c(n1)OC(C(=O)c1ccccc1)Nc1ccccc1-2 (stereo not given)	-3.1	-6%
Cc1cccc(NC(=O)CSc2nnc(NC(=O)c3ccc(S(=O)(=O)N4CCOCC4)cc3)s2)c1C	2.9	-7%
COCC(=O)C(C(=O)OC)[C@H](CCc1ccccc1)NC(=O)OC (stereo not given in full)	-0.2	-13%
COc1ccc2c(c1)O[C@@H](c1cccc(C(F)(F)F)c1)[C@H](OC(=O)Nc1ccc(C)c(Br)c1)C2=O	0.0	16%
Cn1c(=O)c2c(ncn2CCCNC2=CC(C)(C)CC(=O)C2)n(C)c1=O	0.9	-12%
COc1c(O)c(O)cc2c1oc1c3ccccc3oc(=O)c21	2.7	u
CC(=O)NCCc1c(Cc2ccccc2)[nH]c2ccccc12	-12	9%&1%
C[C@H]1Cc2c(-c3ccccc3)nc3c(c2CO1)CN(C(=O)NCCc1c[nH]c2ccccc12)CC3	7.4[11.7 µM]	18%
O=C(CCCCCNC(=O)c1ccccc1)N=Nc1c(O)[nH]c2c(Br)cc(Br)cc12	-6.2	0%
CC(=C\c1ccccc1)/C=C1/SC(=S)N(CCC(=O)Nc2ccccn2)C1=O	u	0%
COC(=O)N/N=C(/c1ccccc1)C1CCCCC1	3.4	11%
Cc1cccc(-c2cc(=O)c3cc(C)ccc3o2)c1	-14	3.5µM*
CCn1cc(NC(=O)CCl)c(C)n1	1.1	30%[activator]
CC(C)(C)OC(=O)N1CCCC1C(=O)NC1COC2CC(n3ccc(=O)[nH]c3=O)OC12 (stereo not given)	-1.2	20%
CCC(C)(C)c1ccc(CC(C)CN2C[C@@H](C)O[C@@H](C)C2)cc1 (stereo not given in full)	-0.5	-5%
Nc1ncnc2c1nc(N1CCCCC1)n2[C@@H]1O[C@@H]2COP(=O)(O)O[C@H]2[C@H]1O	-1.5	17%
CCCCC/C=C\C/C=C\C/C=C\C/C=C\CCCCCC(=O)NCCCC(=O)O	-0.6	2%
COc1ccc2nccc(C(=O)O)c2c1	0.1[24.8 µM]	13%
CC(=O)N1[C@H](Cc2ccccc2)C=C[C@]1(C)C(=O)NCc1cc(F)cc(C(F)(F)F)c1	-1.2	5%
CCN(CC)CCCN1C=C2C(=O)C(C)(OC(=O)c3cccs3)C(=O)C=C2C=C1CCCC(=O)OC (stereo not given)	-0.8[11.7 µM]	-18%
COc1cccc([C@@H]2Oc3ccc(OC)cc3C(=O)[C@H]2OC(=O)NCc2ccc3c(c2)OCO3)c1	5.3&26	1%&-5%

Compound profiles, as listed above. Order of values: Menin MLL FP FL | Sfp PPTase inh
Record of CCn1cc(NC(=O)CCl)c(C)n1 = 1.1 | 30%[activator]
Record of COc1ccc2nccc(C(=O)O)c2c1 = 0.1[24.8 µM] | 13%

More structures.
SMILES	Menin MLL FP FL	Sfp PPTase inh
COc1ccc(C(=O)NC(=O)COC(=O)c2ccc3ncsc3c2)cc1	9.2	17%
O=c1c2ccccc2cnn1Cc1n[nH]c(=S)n1-c1ccc(Cl)cc1Cl	5.2	10%
COC(=O)Cn1c(C(=O)N2CCCC2)cc2c1C[C@H]1CN(C(=O)c3ccccc3)[C@@](Cc3ccccc3)(C(=O)OC)[C@@H]21	3.0	25%
CCN(CC)CCn1c(=S)[nH]c2cc(C(=O)N3CC=C(c4ccccc4)CC3)ccc2c1=O	-0.5	-6%
COc1ccc(C(O)c2nc3ccccc3s2)cc1 (stereo not given)	1.2	16%
CCCCC/C=C\C/C=C\C/C=C\C=C\C(O)CCCC(=O)O (stereo not given)	-2.9	2%
COc1ccc(C2CC(=O)c3c(O)cc(OC4OC(COC5OC(C)C(O)C(O)C5O)C(O)C(O)C4O)cc3O2)cc1O (stereo not given)	15	-6%
C=CCSSSCC=C	1.5	40µM*
C[C@@H]1O[C@@H](OC[C@H]2O[C@@H](Oc3c(-c4cccc(O)c4O)oc4cc(O)cc(O)c4c3=O)[C@H](O)[C@@H](O)[C@@H]2O)[C@H](O)[C@H](O)[C@H]1O	31[activator]	-13%
COc1cccc([C@@H]2Oc3ccc(OC)cc3C[C@H]2OC(=O)Nc2cc(OC)c(OC)c(OC)c2)c1	-7.1	u
CC(=O)NN1C(=O)c2ccc(Oc3ccc4c(c3)C(=O)N(NC(C)=O)C4=O)cc2C1=O	-3.5	5%
CN(C)c1ccc(CNC(=O)[C@@]2(C)C=C[C@@H](Cc3ccccc3)N2C)cc1	6.3	4%
CN(C)CCCOc1c2ccccc2n(Cc2ccccc2)[n+]1[O-]	2.2	8%
CC1(C)OC2C[C@](O)(C(N)=O)C[C@H](O)[C@H]2O1 (stereo not given in full)	2.9	30%
CC(C)CC(CSc1ccc(Br)cc1)N1CCN(C)CCC1=O (stereo not given)	3.7	2%
Cc1cc2c(c(=O)o1)C1O[C@](CCCCN3C(=O)c4ccccc4C3=O)(Cc3cc(C#N)ccc31)O2	3.1[11.7 µM]	-2%
COc1cc2ncnc(Nc3cccc(Br)c3)c2cc1OC	3.8	-28%
COc1c2c(c(C(=O)/C=C/C(C)=C/c3ccccc3)c3c1OCO3)CCN(C)C2	1.6	-9%
C/C(N[C@@H]1CSCC1O)=C1/C(=O)CC2[C@@H]1C2(C)C (stereo not given in full)	-6.8	0%
CCCCCCCCCCCCCC(=O)N[C@@H](C)[C@H](O)c1ccccc1	1.2	20%&-11%
CCCCCCC1Cc2cc(OC)c(OC)cc2C(C(C(=O)OCC)C(=O)OCC)O1 (stereo not given)	-0.5&-2.9[11.7 µM]	4%&27%
N#Cc1cccc(CS(=O)(=O)c2nnnn2C2CCCCC2)c1	-2.6	-15%
O=C(O)Cc1cc(C(=O)Nc2ccc(Br)cc2)sc1-c1ccccc1	2.0	-17%
CCCC(=O)c1ccc(O)cc1O	-23	9%
CC(C)NC[C@H](O)c1ccc2ccccc2c1	u	-3%&10%
Continued.
SMILES	Menin MLL FP FL	Sfp PPTase inh
O=C(O)c1cc(N=Nc2ccc(O)c(C(=O)O)c2)ccc1O	-7.3	-9%
OCc1cccc(Cl)c1Cl	-4.7	-8%
O=S(O)S(=O)(=O)O	1.4	8%
CC(=O)N[C@@H]1C(O)OC(CO)C(O)C1O (stereo not given in full)	-1.7	-10%
Cc1cccc2cc(CN(Cc3cccnc3)C(=O)c3cccs3)c3nnnn3c12	2.3	20%
O=C1Nc2ccccc2C12Nc1ccccc1S2 (stereo not given)	2.9	20µM*
O=C(c1ccncc1)N1C2C=CC(C2)C1(C(F)(F)F)C(F)(F)F (stereo not given)	5.3	-10%
CO[C@H]1COC(=O)C/C=C\[C@H](C)[C@@H](OC)COC(=O)[C@H](C)COC(=O)C/C=C\[C@@H]1C	0.5[11.7 µM]	20%
Cc1occc1C(=O)n1cnc2ccccc21	1.5	-12%
COC(=O)C1=C(C(=O)OC)[C@@H]2N(Cc3ccccc3)c3ccccc3[C@@]23C[C@@H](C(=O)OC)N(S(=O)(=O)c2ccc([N+](=O)[O-])cc2)C3=N1	0.3[11.7 µM]	-3%
COC(=O)C1=C(C(=O)OC)[C@@H]2Nc3ccccc3[C@@]23C[C@@H](C(=O)OC)N(S(=O)(=O)c2ccc4c(c2)OCCN4C)C3=N1	0.9[11.7 µM]	29%
COc1cc(-c2nc(-c3ccc(-c4ccccc4)nc3OC)no2)cc(OC)c1OC	-2.2	19%
COc1cc2c(C)c3c4c(cc(OC)c(OC)c4c2cc1OC)CCN3C	u	-25%
CCc1c2c(nc3ccc(OC)cc13)COC2	-4.3	15%
CC(C)[C@@H](CC(=O)N[C@@H]1CCCC[C@H]1C(=O)N[C@H](CC(=O)N[C@@H](CCC(=O)O)CC(=O)O)Cc1ccccc1)NC(=O)C[C@H](CO)NC(=O)[C@@H]1CNCC[C@H]1N	-2.7	3%
CCN(CC)CCCC(C)n1c(-c2ccccc2)nc2c(NCCO)nc(C)nc21 (stereo not given)	0.1	24%
C[C@]12CC[C@H]3c4ccc(O)cc4CC[C@@H]3[C@H]1CC[C@@H]2OP(=O)(O)O	3.2	6%
C[N+]12CCC(CC1)[C@@H](OC(=O)C(O)(c1ccccc1)c1ccccc1)C2	-1.5[24.8 µM]	14%
CCOc1ccc(C=C2SC(=O)N(CCN)C2=O)cc1	-11	-9%
COC(=O)[C@@H](N)Cc1ccc(O)cc1	0.4	-7%
Cn1c(=O)c2c(ncn2C[C@@H](O)CO)n(C)c1=O	-3.1[24.8 µM]	21%
COc1ccc(-c2nc3c(c4c2C[C@H](c2ccccc2)OC4)CN(C(=O)C2CC2)CC3)c(C)c1	-0.2[11.7 µM]	13%
Oc1c(CN2CCOCC2)cc2c(c1-c1c(O)c(CN3CCOCC3)cc3c1CCCC3)CCCC2	8.6	4%
COc1ccc(CNC(=O)[C@H](C)[C@H]2C[C@]2(C)[C@H](NC(=O)OCc2ccccc2)c2ccccc2)cc1OC	2.1	7%
C=C[C@@]1(C)CC[C@H]2C(=CC[C@@H]3[C@]2(C)CCC[C@@]3(C)C(=O)O)C1	-5.8	11%
Next compounds.
SMILES	Menin MLL FP FL	Sfp PPTase inh
CCCn1cnc2c(c1=O)c1nc3ccccc3nc1n2CCC1=CCCCC1	2.9	14%
CC(C)[C@@H]1NC(=O)c2cc([N+](=O)[O-])cc(I)c2NCC[C@@H](C(N)=O)NC(=O)[C@H](CO)NC1=O	3.5	-1%
O=C1C2=C(C(=O)c3ccccc31)C1O[C@](CCCCN3C(=O)c4ccccc4C3=O)(Cc3c1ccc1ccccc31)O2	9.6[11.7 µM]	0%
COc1ccc(C[C@@H]2c3cc(OC)c(OC)cc3CC[N@+]2(C)CCC(=O)OCCCCCOC(=O)CC[N@@+]2(C)CCc3cc(OC)c(OC)cc3[C@H]2Cc2ccc(OC)c(OC)c2)cc1OC	2.0[24.8 µM]	-7%
CCN(CC)CCCN1C(=O)C(O)=C(C(=O)c2ccco2)C1c1cc(OC)ccc1OC (stereo not given)	1.1	-6%
COc1ccc(N2C(=O)CC(S/C(N)=N/N=C/c3ccnc4ccccc34)C2=O)cc1 (stereo not given)	2.3	5%
CN(C)c1ccc(/C=C2\C(=N)N3C(=NC2=O)Sc2cc(S(C)(=O)=O)ccc23)cc1	u	12%
Cc1nccc2[nH]c(=O)c(C(=O)NC(C)CCc3ccccc3)cc12 (stereo not given)	0.2	23%
O=c1n(-c2ccccc2)c(=O)n2n1CC[C@H]1/C(=N\OC[C@@H](O)COCc3ccco3)[C@H]3O[C@@H]3[C@@H](O)[C@@H]12	-8.0&-3.2[11.7 µM]	-13%&19%
CC[C@@H]1/C=C(\C)C[C@H](C)C[C@H](OC)[C@H]2O[C@@](O)(C(=O)C(=O)N3CCCC[C@H]3C(=O)O[C@H](/C(C)=C/[C@@H]3CC[C@@H](O)[C@H](OC)C3)[C@H](C)[C@@H](O)CC1=O)[C@H](C)C[C@@H]2OC	-0.2	-10%&14%
O=C(O)CCc1c(C(=O)O)[nH]c2cc(Cl)cc(Cl)c12	-0.3	11%
Cc1csc(-c2nc3ccccc3n2C)n1	u	-1%
CC1(C)S[C@@H]2[C@H](NC(=O)[C@@H](N)c3ccc(O)cc3)C(=O)N2[C@H]1C(=O)O	-2.8[24.8 µM]	10%
CCOC(=O)[C@]1(C(NC(=O)OC)c2ccco2)CCCC1=O (stereo not given in full)	-0.6[11.7 µM]	11%
Cc1ccc(NC(=O)CN2C(=O)S/C(=C\c3ccc(-c4cccc(C(=O)O)c4C)o3)C2=O)cc1	u	u
CC/C=C\C/C=C\C/C=C\CCCCCCCCCC(=O)O	-1.0	10%&-5%
CCCC[P+](CCCC)(CCCC)Cc1ccc(NC(=O)[C@@H](Cc2ccc3ccccc3c2)NC(=NC2CCCCC2)NC2CCCCC2)cc1	12	u

Of the compounds above, these contain a COOH group.
SMILES	Menin MLL FP FL	Sfp PPTase inh
CCCCC/C=C\C/C=C\C/C=C\C/C=C\CCCCCC(=O)NCCCC(=O)O	-0.6	2%
COc1ccc2nccc(C(=O)O)c2c1	0.1[24.8 µM]	13%
CCCCC/C=C\C/C=C\C/C=C\C=C\C(O)CCCC(=O)O (stereo not given)	-2.9	2%
O=C(O)Cc1cc(C(=O)Nc2ccc(Br)cc2)sc1-c1ccccc1	2.0	-17%
O=C(O)c1cc(N=Nc2ccc(O)c(C(=O)O)c2)ccc1O	-7.3	-9%
CC(C)[C@@H](CC(=O)N[C@@H]1CCCC[C@H]1C(=O)N[C@H](CC(=O)N[C@@H](CCC(=O)O)CC(=O)O)Cc1ccccc1)NC(=O)C[C@H](CO)NC(=O)[C@@H]1CNCC[C@H]1N	-2.7	3%
C=C[C@@]1(C)CC[C@H]2C(=CC[C@@H]3[C@]2(C)CCC[C@@]3(C)C(=O)O)C1	-5.8	11%
O=C(O)CCc1c(C(=O)O)[nH]c2cc(Cl)cc(Cl)c12	-0.3	11%
CC1(C)S[C@@H]2[C@H](NC(=O)[C@@H](N)c3ccc(O)cc3)C(=O)N2[C@H]1C(=O)O	-2.8[24.8 µM]	10%
Cc1ccc(NC(=O)CN2C(=O)S/C(=C\c3ccc(-c4cccc(C(=O)O)c4C)o3)C2=O)cc1	u	u
CC/C=C\C/C=C\C/C=C\CCCCCCCCCC(=O)O	-1.0	10%&-5%
